# High-throughput results as filed in PubChem.
# Calb biofilm kill – mixtures killing C. albicans biofilm | AID 1242 | C. albicans biofilm persisters + clotrimazole, fluorescence viability; primary screen in compound mixtures of four per well | actives 0.02% (n = 120,000) | inhibition, % at 7.6 µM;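 active = inhibition above 30.3% in the primary screen of four-compound pools, then above 30% when the compound was retested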;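 also: compounds exposed to preformed 24 h biofilms for 48 h; the number belongs to the whole pool; some results filed as inactive read as strong as hits; inactives centre near 12; 0% = biofilm with clotrimazole alone and 100% = kill control; retested singly at about 60 µM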
#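 Probe or stimulus – Clotrimazole 50 µg/mL co-treatment · System – C. albicans biofilms · Schedule – 24 h biofilm formation, then 48 h compound exposure, 37 °C · Evaluation – percent inhibition of biofilm viability · Technique – 2-h Alamar Blue fluorescence, 535/590 nm excitation/emission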
# Starred values were filed as active, the others as inactive. Not all compounds are listed, so the mix of outcomes need not match the whole.
# Start of the listing, in advance, three compounds:
Molecule | Calb biofilm kill
O=C(C1=C(O)C(=O)N(Cc2cccnc2)C1c1ccccn1)c1cccs1 (centres undefined) | 13
O=C(Nc1ccc2oc(-c3ccncc3)nc2c1)c1ccccc1 | 9
C=CCNC(=O)C12CCC(C)(C(=O)C1Br)C2(C)C (centres undefined) | 4

# This part in full, repeating the preview:
Molecule | Calb biofilm kill
O=C(C1=C(O)C(=O)N(Cc2cccnc2)C1c1ccccn1)c1cccs1 (centres undefined) | 13
O=C(Nc1ccc2oc(-c3ccncc3)nc2c1)c1ccccc1 | 9
C=CCNC(=O)C12CCC(C)(C(=O)C1Br)C2(C)C (centres undefined) | 4
Nc1nc2n(n1)C(=O)CC(c1ccccc1[N+](=O)[O-])N2 (centres undefined) | 2
CC(C)CN1CCN(Cc2cccn2-c2ccccn2)CC1CCO (centres undefined) | 11
CCOC(=O)c1ccc(NC(=S)NCCCN2CCN(C3CCCCC3)CC2)cc1 | 20
COc1ccc(C/C(C)=N/NC(=O)c2cc(C)oc2C)cc1 | 4
CCOC(=O)/C=C1\SCC(=O)N1CC(=O)NC(C)c1ccccc1 (centres undefined) | 9
O=C(Nc1ccc2c(c1)OCO2)c1ccc(S(=O)(=O)N2CCCC2)cc1 | 15
Cc1ncc([N+](=O)[O-])n1CC(=O)NC(C)(C)C | 10
O=C(N/N=C/c1ccco1)c1cc(-c2cccs2)[nH]n1 | 18
Cc1ccc(N2C(=O)NC(NC(=O)C(C)(C)C)(C(F)(F)F)C2=O)cc1C (centres undefined) | 12

# (more compounds)
Molecule | Calb biofilm kill
O=C(COC(=O)c1cccnc1)Nc1ccccc1 | 13
COc1ccc(OC)c(NC2=C(Cl)C(=O)N(Cc3ccccc3)C2=O)c1 | 1
C/C(=N\OC(=O)c1c(-c2ccccc2Cl)noc1C)c1ccncc1 | 6
CC1(C)CC(=O)C=C(NCCN2CCN(C(=S)NC3CCCCC3)CC2)C1 | 14
CCCCCn1nc(C)c2c(C)cc(=O)[nH]c21 | 14
COc1ccc(/C=N/Nc2nc3ccccc3[nH]2)c(OC)c1OC | 15
Cc1cc(C)cc(NC(=O)NN2C(C)CCCC2C)c1 (centres undefined) | 4
N#CCCC12CCCCC1=Nc1ccccc12 (centres undefined) | 19
Cc1cccc(NC(=O)CN2C(=O)N/C(=C/c3cc(C)n(C)c3C)C2=O)c1 | 18
CCCOC(=O)c1ccc(NC(=O)CC(C)(C)C)cc1 | 25
O=C(Cn1cnc2ccccc2c1=O)c1ccc(Br)cc1 | 8
O=C(COc1ccc(Br)cc1)N1CCN(S(=O)(=O)/C=C/c2ccccc2)CC1 | 3

# The list continues:
Molecule | Calb biofilm kill
COC(=O)N/N=C/c1ccc(OC(=O)c2ccco2)c(OC)c1 | 12
Cc1nc2ccccc2c(=O)n1NC(=O)C1CC1 | 8
CCc1cccc(CC)c1NC(=S)NCCc1c(C)[nH]c2ccccc12 | 10
Cc1cc(-c2csc(NC(=O)c3cccc(S(=O)(=O)N(C)C)c3)n2)c(C)n1-c1ccccc1 | 14
COc1ccccc1Nc1cc(C(=O)NCc2cccnc2)c2ccccc2n1 | 16
Cc1ccc(-n2nc3cc(C)c(NC(=S)NC(=O)/C=C/c4ccco4)cc3n2)cc1 | 11
CCCCCCCc1ccc(-c2ccc(O)cc2)nc1 | 17
CC(C)Cc1nnc(NC(=O)CSc2nc(-c3ccccc3)cc(=O)[nH]2)s1 | 9
Cc1cc(/C=N/NC(=O)c2cccc(F)c2)c(C)n1-c1ccccc1 | 16
O=C(NCc1n[nH]c(=S)n1-c1cccc(Cl)c1)c1cccs1 | 7
C=CCNC(=S)N/N=C/c1cccc([N+](=O)[O-])c1 | -4
COc1cccc(CC2(CO)CCCN(Cc3c(C)cc(C)cc3-n3cccn3)C2)c1 (centres undefined) | 16

# Later entries
Molecule | Calb biofilm kill
O=C(N/N=C/c1cn[nH]c1-c1ccc(F)cc1)c1ccncc1 | 18
Cc1ccc(NC(=O)Nc2ccc3c(c2)C(=O)OC3)cc1Cl | 3
Nc1ccc(C(=O)OCC(=O)N2CCOCC2)cc1[N+](=O)[O-] | 21
CCN(CC)c1ccc(C=Nc2ccccc2C)c(O)c1 | 21
COc1ccc(-c2cc(-c3cc(C)ccc3O)[nH]n2)cc1 | 25
Cc1nc2cc3ccccc3cc2n1C | 19
Cc1cccc(NC(=S)NCC(c2cccnc2)N(C)C)c1C (centres undefined) | 11
CCOC(=O)c1c(C)c(C(=O)NCCc2ccccc2)c(C)n1C | 6
COc1ccc(-c2ccc(OC)c([C@H]3[C@H]4C=CC[C@@H](C)[C@@H]4C(=O)N3Cc3ccccc3)c2)cc1OC | 4
CC(=O)Nc1ccc(NC(=O)Cn2ccc([N+](=O)[O-])n2)cc1 | 8
COC(c1ccccc1)c1nnc(CCC(=O)N2CCN(Cc3cccs3)CC2)o1 (centres undefined) | 14
CCC(CO)NCc1ccc(Br)cc1 (centres undefined) | 15

# (cont.)
Molecule | Calb biofilm kill
COc1ccc(C(=O)NCC(=O)OCC(=O)NCc2cccs2)cc1 | 15
O=C(CN1C(=O)CCC1=O)Nc1nc(-c2ccc(Cl)s2)cs1 | 16
O=C(Cn1nc(CNc2ccc(Br)cc2)[n+]2c1CCCCC2)c1ccc([N+](=O)[O-])cc1 | 22
CCOC(=O)c1cc(-c2ccccc2)sc1NC(=O)C(C)Sc1nnc(N)s1 (centres undefined) | 10
COc1ccc(/C=C(/NC(=O)c2ccccc2Cl)C(=O)NCCCC(=O)O)cc1 | 24
O=C(Nc1ccc(Cl)cc1)ON=C1CCCC1 | 6
COc1cc(OC)cc(C(=O)N2CCN(Cc3ccccc3Br)CC2)c1 | 17
CCCC1C2C(=O)N(c3cccc(C)c3)C(=O)C2ON1c1ccccc1 (centres undefined) | 12
CCC(C)/C(C)=N/NC(=O)CNS(=O)(=O)c1ccc([N+](=O)[O-])cc1 (centres undefined) | 21
COc1ccc(C(=O)OC/C(O)=C(\C#N)c2nc3ccccc3[nH]2)cc1S(=O)(=O)N1CCOCC1 | 12
Cc1cc(C)cc(N2C(=O)CN(Cc3sccc3C)C2=S)c1 | 14
CC(O)C(=O)N/N=C/c1ccccc1C(=O)O (centres undefined) | 16

# Next part.
Molecule | Calb biofilm kill
O=c1c2c(ncn2C2CCCC2)n(Cc2ccccc2)c(=O)n1CCOc1ccc(Br)cc1 | 8
COc1ccc(CNC(=O)C(C)Sc2nc3ccccc3c(=O)n2CCCN2CCOCC2)cc1 (centres undefined) | 5
S=C(NCC1CCCO1)Nc1ccc(Cl)cc1Cl (centres undefined) | 17
CCN(CC)S(=O)(=O)c1cccc(N=Nc2c(O)c3ccccc3oc2=O)c1 | 10
CC(C)CC1NC(=O)N(Cc2nc3ccccc3s2)C1=O (centres undefined) | 21
O=C(CN1c2ccccc2Sc2ccccc21)N/N=C/c1ccc(Cl)cc1 | 27
COc1cc2[nH]c(-c3cccc(F)c3)cc(=O)c2cc1OC | 11
COc1ccc(/C(C)=N/OCC(=O)N=Nc2c(O)[nH]c3ccc(Br)cc23)cc1 | 6
COc1ccccc1-n1c(CCn2nc(C)c(Br)c2C)n[nH]c1=S | 12
Cc1ccc(-c2ccc(/C=C3\SC(N4CCOCC4)=NC3=O)o2)cc1 | 13
COc1ccc(C(=O)C2CCCN(Cc3ccc4c(c3)OCCO4)C2)cc1F (centres undefined) | 1
Cc1c(Br)ccc(NC(=O)c2ccccc2[N+](=O)[O-])c1C | 9

# Part of the list above in order of heavy-atom count, ascending.
Molecule | Calb biofilm kill
Cc1cccc(NC(=S)NCC(c2cccnc2)N(C)C)c1C (centres undefined) | 11
O=C(Nc1ccc2c(c1)OCO2)c1ccc(S(=O)(=O)N2CCCC2)cc1 | 15
CCOC(=O)c1cc(-c2ccccc2)sc1NC(=O)C(C)Sc1nnc(N)s1 (centres undefined) | 10

# Next entries follow:
Molecule | Calb biofilm kill
O=C(Cn1cc2c(n1)CCCCC2)Nc1ccccc1Cl | 25
Cc1nnc(SCC(=O)c2ccc([N+](=O)[O-])cc2)s1 | 10
CN(CCc1ccccn1)C(=O)CCC1CCCN(C(=O)CN2CCCCCC2)C1 (centres undefined) | 9
Cc1ccc(S(=O)(=O)NCC2CCC(C(=O)NCc3ccccn3)CC2)cc1 (centres undefined) | 16
Cc1cc2cccc(C)c2nc1SCC(=O)NCC1CCCO1 (centres undefined) | 2
COCCN(Cc1cc2c(C)cc(C)cc2nc1Cl)C(=O)c1ccccc1F | 4
O=c1c(-c2ccccc2)c(O)cc(-c2ccncc2)n1-c1ccc(Cl)cc1 | 4
Cc1c(C(=O)Nc2cccc(Cl)c2)cn2c(nc3ccccc32)c1C#N | 9
Oc1cccc(NC(=S)Nc2ccccc2)c1 | 18
CCN(CC)c1c([N+](=O)[O-])c(=O)n(CC)c2ccccc12 | 16
CCOC1OC(=O)C(Cl)=C1Nc1ccc(C)cc1 (centres undefined) | 10
COC(=O)C1(Cc2ccccc2)NC(c2ccccc2C)C2C(=O)N(c3ccc4c(c3)OCO4)C(=O)C21 (centres undefined) | 8

# More results:
Molecule | Calb biofilm kill
O=C(NNC(=O)C1CCN(c2ncccn2)CC1)c1ccc(Cl)cc1 | 16
O=C(O)C1CN(c2ncccc2[N+](=O)[O-])C1 | 7
CC(C)=C(NC(=O)c1ccccc1)C(=O)N/N=C/c1ccc(O)cc1 | 11
CCN(CC)C(=O)c1cnn(-c2ccccc2)c1NC(=O)c1ccccc1F | 15
COc1ccc(C(=O)Nc2ccc3c(c2)OCCO3)cc1[N+](=O)[O-] | 12
CCOC(=O)Cc1csc(NC(=S)NC(=O)C(C)(C)C)n1 | 16
CCOc1ccc(/C=C/C2=CC(C)(C)NC(=S)N2)cc1 | 11
Cc1ccc2nsnc2c1NC(=O)c1cccnc1Cl | 14
CN(C)c1ccc(N=Nc2ccccc2C(=O)OCC(=O)N2CCCCCC2)cc1 | 6
Fc1ccccc1Cn1c2[n+](c3ccc(C(F)(F)F)cc31)CCCCC2 | 12
Cn1cc(S(=O)(=O)NC(c2ccccc2)c2ccccc2)c(=O)n(C)c1=O | 14
COCCNc1nc(-c2cc3ccccc3o2)cs1 | 13

# The listing continues:
Molecule | Calb biofilm kill
NS(=O)(=O)c1cc2c(cc1Cl)NC(CC1CCCC1)NS2(=O)=O (centres undefined) | 22
COc1cc(NC(=S)Nc2ccccn2)cc(OC)c1 | 10
Cc1ccc(Nc2nc(N)nc(CSC(=S)N3CCN(c4ccccc4)CC3)n2)cc1 | 17
COC(=O)C1=C(C(=O)OC)C2C(C)=CC(C)=CN2C(C(=O)OC)=C1C(=O)OC (centres undefined) | 7
CCC(C(=O)NC1CCCCC1)n1c(SCc2ccccc2F)nc2ccncc21 (centres undefined) | 14
O=C(Cc1ncc(C(F)(F)F)cc1Cl)NCc1ccco1 | -6
Cc1ccc(NC(=O)NC(=O)N(C2CCCCC2)S(=O)(=O)c2ccccc2)cc1 | 14
O=[N+]([O-])c1cccnc1N/N=C/c1ccccc1O | 18
Cn1c(=O)n(C)c2cc(/C=N/N=C3/NC(=O)C(CC(=O)O)S3)ccc21 (centres undefined) | 7
CS(=O)(=O)n1nc(OC(=O)c2cc(Br)ccc2Cl)cc1N | 19
C=CCSc1nc(N2CCOCC2)c2c(c1C#N)CC(C)(C)N(C)C2 | 13
CCOC(=O)Nc1ccc(S(=O)(=O)NC2CCCCC2)cc1 | 13

# 2 entries picked at random from those above:
Molecule | Calb biofilm kill
O=[N+]([O-])c1cccnc1N/N=C/c1ccccc1O | 18
Cn1c(=O)n(C)c2cc(/C=N/N=C3/NC(=O)C(CC(=O)O)S3)ccc21 (centres undefined) | 7

# Later entries.
Molecule | Calb biofilm kill
O=S(=O)(c1cccc(-c2nnc3n2CCCCC3)c1)N1CCCC1 | 2
CCOC(=O)c1nnsc1-c1ccc(-c2snnc2C(=O)OCC)cc1 | 11
COc1ccc(CCNC(=O)CCCN2C(=O)c3ccccc3C2=O)cc1 | 2
CCN(CC)CCN(Cc1cc2cc(C)c(C)cc2[nH]c1=O)C(=S)NCc1ccco1 | 18
CCOc1ccc(N/C(C)=C/C(=O)c2ccc3c(c2)OCCO3)cc1 | 12
O=C(c1cnn(C(=O)COc2ccccc2F)c1)c1cc(F)ccc1O | 20
COc1ccc(/C=C(\NC(=O)c2ccccc2)C(=O)OC[C@@H]2CCC[N+]3(C)CCCCC23)cc1OC (some centres undefined) | 7
CCOc1ccc(NC(=O)c2ccc(NC(=S)NC3CC3)cc2)cc1 | 8
Cc1ccc(C(=O)NNC(=O)CCn2nnc3ccccc32)cc1 | -4
Cc1ccc(C)c(C(=O)CN2C(=O)NC3(CCC(C)CC3)C2=O)c1 (centres undefined) | 15
CC1(C)CC(=O)C(C=Nc2cccnc2/N=C/C2=C(O)CC(C)(C)CC2=O)=C(O)C1 | 4
CC(C)(C)NC(=O)Cn1c(=O)c(=O)n(Cc2ccccc2)c2ccc(Cl)cc21 | 10

# (more compounds)
Molecule | Calb biofilm kill
CCOC(=O)c1cc(C)nn1-c1nc(Cl)cc(OC)n1 | 10
CCN(Cc1ccccc1)C(=O)Cn1c(=O)n(-c2ccc(OC)cc2OC)c(=O)c2c(C)c(C)sc21 | 2
COc1ccc(OC)c(C2=Nn3c(nnc3-c3cc(C)[nH]n3)SC2)c1 | 15
O=C(COc1ccc(S(=O)(=O)N2CCCCC2)cc1)NCc1ccccn1 | 8
CN(C)CCOC(=O)NC12CC3CC(CC(C3)C1)C2 | 14
COc1ccc(Cl)cc1NC(=S)Nc1ccccc1C | 19
CN1CCN(S(=O)(=O)c2ccc(NC(=O)COc3ccccc3Cl)cc2)CC1 | 12
CCOC(=O)c1c(C)noc1-c1ccc(Br)o1 | 27
COc1ccc(-c2nc(-c3ccc(O)cc3O)cs2)cc1OC | 9
Clc1cccc(-c2csc(Nc3cccnc3)n2)c1 | 11
COC(=O)c1cc2n(n1)CCN(Cc1cccc(OC)c1)C2=O | 9
Cc1cc(C)c(C(=O)CN2C(=O)NC3(CCCCC3)C2=O)cc1C | 9
COc1ccccc1-n1c(SCC(=O)O)nc2sc3c(c2c1=O)CCC3 | 19
